ugtP null kill = growth inhibition of ugtP-null S. aureus, primary screen, RN4220 ugtP deletion, OD600; 16 h; some inactives read as strong as hits; growth inhibition, % (no concentration beside the values); actives 0.54% (n = 330,000); AID 1259309, 2017;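 active means z-score under -3 and OD600 up to 0.15 on both plates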;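 further: plate controls were untreated wells for no effect and antibiotic for full effect; wells of about 80 µL received 100 nL stock; the first replicate is given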
Mtb hypoxia inh = PubChem AID 1159583; M. tuberculosis hypoxia-regulated fluorescent reporter, fluorescence; fluorescence inhibition, % (concentration not given with the values); actives 0.1% (n = 300,000);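 active means 35 to 45% if threefold the growth effect, above 45% if 1.5-fold the growth effect; inactive means the rest, general growth blockers included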;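 further: wells of about 50 µL received 100 nL stock; 0% = vehicle wells and 100% = reference inhibitor wells; whole bacteria with a GFP reporter of the hypoxia response; strong numbers were not always called active; many hits fall short of the cut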
Autofluor counter = flagged as autofluorescent in microsphere protease counterscreen | compound autofluorescence counterscreen, microsphere flow cytometry; stronger effect = higher value | fluorescence intensity (no concentration beside the values) | actives 3.1% (n = 360,000) | AID 624483;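 active means at least 3 SD above the mean of all compounds, about 16000 in these data; inconclusive means too few beads counted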;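 further: 100 nL of 1 mM stock went into each well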
PrP UTR inh = inhibition of PrP 5' UTR reporter expression | cell-based PrP 5' UTR mRNA reporter, plate reader | inhibition, % (no concentration beside the values) | actives 0.35% (n = 340,000);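 active means every replicate at 50% or more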;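 further: 0 = median of the neutral control wells; tested in H4 reporter cells; numbers are from one replicate; inactives centre near -14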
Sa RN4220 lethal = growth inhibition of S. aureus RN4220, primary screen, OD600. actives 0.33% (n = 330,000). 16 h. inhibition, % (test concentration not listed);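 active means z-score of -3 or lower and OD600 up to 0.18 on both plates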;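 further: plate controls were untreated cells for no effect and reference antibiotic for full effect; stock transfer was 100 nL into about 80 µL; one replicate is shown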
BJeLR viability = MLPCN primary cell-based screen for lethality selective to Ras in HRASV12 cells | actives 0.17% (n = 300,000) | AID 1554, 2009 | BJeLR (HRASV12) viability, CellTiter-Glo ATP luminescence, 48 h; reference of the scale not given here | inhibition, % (no concentration beside the values);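 active means replicate mean above 50%; inconclusive means above 50% but judged a plate artefact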;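 further: 50 nL library stock added to about 25 µL; numbers are from one replicate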
Mtb hypoxia inh growth = further read-out of Mtb hypoxia inh, marked with its call; growth inhibition, %; measured here: M. tuberculosis growth (absorbance);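 0% = vehicle and 100% = reference antibiotic; read after six days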
Numbers without * were called inactive; ? = inconclusive; / = no result given.

Value order – ugtP null kill, Mtb hypoxia inh, Mtb hypoxia inh growth, Autofluor counter, PrP UTR inh, Sa RN4220 lethal, BJeLR viability
> Fc1ccccc1C(c1nnnn1C1CCCC1)N1CCN(Cc2ccccc2)CC1 (stereo not given)
  4.2, /, /, 4327, -7.2, -4.8, -12.3
> COc1ccc([N+](=O)[O-])cc1C(=O)NC1CCN(Cc2ccccc2)CC1
  4.8, 2.6, 18.7, 4317, /, 2.3, -5.6
> Cc1cccc(Oc2ccc(Cl)cc2N)c1
  -0.7, 7.5, 7.7, 4903, -33.1, 0.3, -4.3
> CCOC(=O)C1C(=O)NC(c2ccccc2)=NC1c1cccc(Br)c1 (stereo not given)
  5.2, 5.0, -1.4, 2209, -19.6, 1.3, -0.5
> COc1ccc(C(=O)OCC(=O)NC2CC2)cc1F
  -0.2, -0.1, 2.4, 2982, -13.8, 0.6, /
> O=C(O)/C=C/c1cccc(NS(=O)(=O)c2ccccc2)c1
  6.1, 4.6, -5.8, 9346, -21.6, 0.9, 0.2
> COc1ccccc1CNC(=O)COC(=O)c1ccc(C)s1
  3.3, 1.2, 9.3, 8379, -15.3, 4.8, /
> CC(C)COc1ccc(C(=O)N2C(=O)c3ccc(N)cc3C2=O)cc1
  1.6, 16.3, -2.6, 5822, -24.8, 5.9, -5.9
> COc1ccc2[nH]c3c(c2c1)CCNC3
  -10.5, /, /, 5647, -11.6, 3.0, /
> COc1ccc(NC(=O)CCNS(=O)(=O)c2ccc(NC(C)=O)cc2)cc1Cl
  0.0, -0.2, -14.3, 3921, -15.8, -3.8, -3.8
> Cn1nnnc1SCC(=O)N(C1CCCCC1)C1CCS(=O)(=O)C1 (stereo not given)
  4.8, 8.5, -0.5, 4325, -62.1, 3.5, 8.4
> CC(C)n1c(NCc2ccc(Cl)cc2)nc2ccccc21
  2.2, 15.4, 12.1, 3988, -26.8, -5.7, 4.7
> CCn1ccnc1C(O)c1ccccc1OC (stereo not given)
  3.9, 8.1, 5.7, 12690, -15.9, 6.0, -6.4
> CC(=O)c1sc(NC(=O)CCCOc2ccccc2C)nc1C
  -0.7, -8.8, 0.0, 3565, -7.6, -2.7, -0.2
> COc1cc2c(cc1NC(=O)CN1CCN(S(=O)(=O)c3ccc(F)cc3)CC1)oc1ccccc12
  -14.7, /, /, 2719, 1.6, -5.7, 7.3
> Cc1ccc(S(=O)(=O)Nc2nnc(CC(C)(C)C)s2)cc1
  -0.6, -12.6, -15.9, 3405, -5.0, 4.2, -3.6
> CCc1ccccc1NC(=O)NNC(=O)c1ccc2ccccc2c1O
  7.0, 9.5, 1.9, 5378, -23.9, 5.9, -17.0
> CC(=O)OC1OCCOC1NC(=S)NCc1ccco1 (stereo not given)
  9.7, -6.7, -5.4, 3157, -2.9, 11.1, -8.6
> CC(C)NS(=O)(=O)c1cc(C(=O)O)ccc1Cl
  9.4, 4.1, 7.9, 10241, -4.3, 6.6, 4.7
> O=C(CN1CCN(c2ccccn2)CC1)Nc1ccccc1C(=O)Nc1ccccc1
  3.8, 9.7, 7.9, /, -7.5, 2.2, -0.4
> O=S(Cc1ccccc1)CC(O)(c1ccc(Cl)cc1)c1ccc(Cl)cc1 (stereo not given)
  -27.7, -3.9, 7.8, 10720, -11.7, 7.6, 2.9
> Cn1c(=O)c2c(nc(SCC(=O)OCc3ccccc3)n2C)n(C)c1=O
  -0.7, -1.9, 1.3, 7902, -24.1, 4.2, 10.5
> CCOC(=O)N1CCN(C(=O)C(=O)NNC(=O)COc2ccc(Cl)c(C)c2)CC1
  -5.1, -2.0, 0.1, 7667, -21.2, 2.7, 7.8
> Cc1ccccc1NC(=O)c1nc(S(C)(=O)=O)ncc1Cl
  2.7, 12.3, 4.5, 3717, -14.1, 10.8, 10.0
> O/N=C/c1cc(Br)ccc1OCc1ccc(F)cc1
  /, /, /, 3132, -37.5, /, -1.4
> CSc1ccc(S(=O)(=O)NCCOc2ccccc2C)cc1
  -8.2, -4.9, -11.9, 11618, -34.0, 0.6, -5.7
> COc1ccc(/C=N/NC(=O)CCCOc2ccc(Cl)cc2Cl)cc1[N+](=O)[O-]
  /, /, /, 2984, -0.7, /, -2.9
> CCCC(=O)Nc1sc2c(c1C(=O)Nc1ccccn1)CCCC2
  9.1, 5.2, 8.9, 4025, -13.4, -2.1, 22.6
> Cc1cc(NC(=O)CC(C)C)c(=O)n(Cc2c(F)cccc2Cl)c1
  6.3, -3.9, 8.5, /, -10.6, 1.7, 7.7
> CC(Sc1nnc(CC(=O)Nc2ccccc2F)n1C)C(=O)Nc1nccs1 (stereo not given)
  8.9, 7.9, 6.6, 3870, -17.7, 1.6, 2.1
> CCOc1ccccc1C(=O)Nc1ccc2nc3n(c(=O)c2c1)CCCCC3
  0.8, 8.2, 17.3, 5568, -12.2, 4.8, 7.5
> C/C(=C\C(=O)c1ccc(C)cc1)NCc1ccc(F)cc1
  3.7, /, /, 3462, -16.1, -1.1, 3.0
> Cc1ccccc1-n1nc(-c2cccnc2)cc1C(=O)NN
  1.8, 6.7, 6.4, 4579, -27.5, 5.3, 0.4
> CCN(CC)C(=S)SCc1csc(CC(=O)Nc2ccccc2C)n1
  2.2, 1.8, 3.1, 3779, -21.2, 1.6, -7.5
> Cc1ccc(-c2nn(-c3ccccc3)cc2/C=N/NC(=O)c2ccncc2)o1
  /, /, /, 4591, -56.9, /, 5.8
> C[C@@H]1C=C(C(=O)N2CCOCC2)O[C@H](OCc2ccc(CO)cc2)C1
  -4.4, 6.5, 6.6, 3750, 4.6, -7.9, 9.1
> O=C(O)Cc1ccc(O)c(F)c1
  /, /, /, 5802, 7.5, /, 3.2
> COc1cc(/C=N/NC(=O)c2cccnc2)ccc1OC(=O)c1cccc(Br)c1
  /, /, /, ?, -6.9, /, 3.3
> O=c1cc(Cl)c(-c2ccccc2)n[nH]1
  5.0, /, /, 4216, -7.1, 1.3, -0.7
> C/C(=N\NC(=O)c1cccc(S(=O)(=O)N2CCCC2)c1)c1ccc(OCC(=O)N(C)C)cc1
  /, /, /, 4408, -9.4, /, -7.6
> CCN1CCCC1CNC(=O)C1CCCN(S(=O)(=O)c2cccc3nsnc23)C1 (stereo not given)
  2.5, 10.2, 7.6, 4129, -8.5, -1.4, -1.9
> Cc1cccc(C(=O)OCC(=O)c2ccc(CC(=O)N3CCOCC3)s2)c1C
  -13.8, -8.8, 4.7, ?, -12.1, -2.6, /
> CCOCCCNC(=O)CN1C(=O)CSc2cc(S(=O)(=O)N3CCCCCC3)ccc21
  3.2, -6.1, -7.7, 9886, -33.2, -1.3, 0.1
> CCCn1nnnc1SCC(=O)Nc1nnc(CC)s1
  6.9, /, /, 2376, -5.9, -1.4, -9.9
> O=[N+]([O-])c1cccc(S(=O)(=O)[N-]c2nc3ccccc3nc2-n2cc[n+](Cc3ccccc3)c2)c1
  0.1, 13.4, -1.0, 3076, -13.2, 4.2, 3.7
> COc1ccc(-c2noc(CNS(=O)(=O)c3ccc(NC(C)=O)cc3)n2)cc1OC
  1.9, -2.3, -1.8, 5792, -14.7, -1.2, 4.0
> COc1ccc(-n2c(SCC(=O)NCC3CCCO3)nc3c(c2=O)SCC3)cc1OC (stereo not given)
  2.4, 11.2, 10.7, 5474, 0.3, 0.8, 2.1
> Clc1cccc(Cl)c1COc1ccccn1
  5.0, 4.0, -2.2, ?, -13.6, 0.7, -7.5
> O=C(CN1CCc2ccccc21)NC(c1ccccc1)c1ccccc1
  4.7, -7.0, 0.1, 7227, -21.6, 3.2, -7.0
> Cc1ccccc1NC(=S)NC(=O)c1cc(-c2ccccc2)nc2ccccc12
  -4.0, 19.6, 14.8, /, -2.4, 6.3, 4.7
> O=C(OCc1cn(Cc2ccccc2)nn1)c1ccccc1
  4.7, 13.0, 7.2, 2930, -16.3, 8.0, -3.0
> C[N+](C)(C)CC(=O)Nc1ccc(Cl)cc1C(=O)c1ccccc1
  9.9, 1.3, 4.2, 3071, -19.5, 1.0, /
> CC(=O)c1ccc(NS(=O)(=O)c2ccccc2)cc1
  -9.3, -7.9, -4.7, 21657*, -50.1, -5.6, -20.2
> Cc1ccc(NC(=O)c2ccccc2)s1
  -5.7, 8.7, 3.7, 24292*, -22.5, 3.6, -1.2
> COc1cc(C(=O)NCCCN2CCCC2=O)ccc1OCc1ccc(Cl)cc1Cl
  -0.7, 8.9, 11.3, ?, -14.5, 17.8, /
> Cc1ccc(NC(=S)NCC2CCCO2)cc1C (stereo not given)
  -4.9, 0.2, -3.1, 4285, -11.3, -2.3, -4.0
> Cc1c(C)c2ccc(OCC(=O)NC(Cc3ccc(Cl)cc3)C(=O)O)cc2oc1=O (stereo not given)
  9.9, /, /, 5046, -7.4, 2.9, -3.1
> Cc1ccccc1C(=O)NC1CCN(CC(=O)Nc2ccc3c(c2)OCCO3)CC1
  7.3, 9.5, 15.5, 4180, -32.1, 3.5, -6.4
> COc1cccc(C(=O)CSc2nnnn2C2CCCCC2)c1
  -14.1, 6.2, 9.7, 4269, -50.6, 7.3, -1.2
> CCc1cccc(NC(=O)COc2ccccc2)c1
  1.9, /, /, 2922, -52.4, 4.0, -3.0

Individual results from the list.
Autofluor counter, CCCC(=O)Nc1sc2c(c1C(=O)Nc1ccccn1)CCCC2 reads 4025
Autofluor counter, Cc1c(C)c2ccc(OCC(=O)NC(Cc3ccc(Cl)cc3)C(=O)O)cc2oc1=O (stereo not given) reads 5046
ugtP null kill, COc1ccc2[nH]c3c(c2c1)CCNC3 reads -10.5

More compounds
Value order – ugtP null kill, Mtb hypoxia inh, Mtb hypoxia inh growth, Autofluor counter, PrP UTR inh, Sa RN4220 lethal, BJeLR viability
> CCCCC1=CC2=CC(=O)C(C)(OC(=O)CC)C(=O)C2=CN1CCCOC(C)C (stereo not given)
  /, /, /, 3523, -36.7, /, 1.9
> c1sc2[n+](c1C13CC4CC(CC(C4)C1)C3)CCS2
  0.4, -2.6, 3.5, 2153, -15.2, 2.3, 5.6
> CC(C)(C)OC(=O)NCCCCC(NC(=O)c1nc[nH]c1C(=O)NCc1ccccc1)C(=O)OC(C)(C)C (stereo not given)
  -37.4, 2.8, 3.1, /, /, -3.4, /
> COc1cccc(C2=CC(=O)CC(c3ccc(F)cc3)C2)c1 (stereo not given)
  -10.6, 12.8, 10.3, /, /, 2.6, /
> C/C(=N/OCC(=O)Nc1ccccc1)c1cccs1
  /, /, /, 2136, -33.3, /, -0.4
> O=C(COc1ccc2c(-c3ccccc3)cc(=O)oc2c1)Nc1ccc(CCO)cc1
  -2.3, 3.6, 1.4, 5696, 0.4, 0.7, 9.2
> O=c1[nH]c(COc2ccc(Cl)cc2Br)nc2ccccc12
  -8.4, 0.3, -1.6, 6485, -65.1, -1.9, 12.0
> CC(=NCc1ccco1)c1c(C)[nH]n(-c2nc3ccccc3s2)c1=O
  -12.7, 8.6, 8.8, 10650, 26.3, 6.4, 8.8
> CC(NC(=O)Cc1ccc(F)cc1)C(c1cccs1)N1CCN(C)CC1 (stereo not given)
  6.9, 3.7, 1.3, 7944, -20.2, 4.5, -5.9
> Cc1cccc(N=C2NN=C(c3c(C)[nH]c4ccccc34)CS2)c1
  -3.6, 1.2, 4.2, 10699, -19.5, 35.6, -17.6

In a second layout: entries from further up
Compound | ugtP null kill | Mtb hypoxia inh | Mtb hypoxia inh growth | Autofluor counter | PrP UTR inh | Sa RN4220 lethal | BJeLR viability
COc1cccc(C2=CC(=O)CC(c3ccc(F)cc3)C2)c1 (stereo not given) | -10.6 | 12.8 | 10.3 | / | / | 2.6 | /
CC(NC(=O)Cc1ccc(F)cc1)C(c1cccs1)N1CCN(C)CC1 (stereo not given) | 6.9 | 3.7 | 1.3 | 7944 | -20.2 | 4.5 | -5.9

Screening results deposited in PubChem by several laboratories.

Random draw from the library; overall some 4% were active at least once.
